Compound activity: PubChem, National Center for Advancing Translational Sciences (NCATS)
Cruzain inh Det – qHTS Assay for Promiscuous and Specific Inhibitors of Cruzain (with detergent); Potency, µM, inactives show max response, negative = inhibition, usual class: inhibitors; purified cruzain, Z-FR-AMC fluorescence, 0.01% Triton; 0.43% of 200,000 active; Cruzipain (Trypanosoma cruzi), P25779; active = well fitted curve in the direction sought with a large enough effect; inconclusive = small, poorly fitted or top-dose-only effect, or another doubt; inactive = no such curve, though single readings can be large; an effect the other way counts as inactive or inconclusive;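 note: plate controls were neutral wells for no effect and buffer without enzyme for full effect; nearly all actives have a fitted effect of over 40% in size; top concentration of the series not given in the record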
Target sequence (P25779 123-467 limits assumed): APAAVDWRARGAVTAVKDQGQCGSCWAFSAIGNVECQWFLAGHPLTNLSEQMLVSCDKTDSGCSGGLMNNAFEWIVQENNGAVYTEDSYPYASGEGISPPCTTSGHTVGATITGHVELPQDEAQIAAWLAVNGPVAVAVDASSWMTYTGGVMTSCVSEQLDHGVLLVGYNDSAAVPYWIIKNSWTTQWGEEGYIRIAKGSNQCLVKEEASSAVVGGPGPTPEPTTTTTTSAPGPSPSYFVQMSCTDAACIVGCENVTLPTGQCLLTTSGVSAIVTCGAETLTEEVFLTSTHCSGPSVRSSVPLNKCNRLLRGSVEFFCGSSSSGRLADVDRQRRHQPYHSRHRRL
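15 min RT preincubation of 1.5 nM cruzain with compound, then 2 uM Z-FR-AMC added; kinetic AMC fluorescence, 60 s delta. Triton X-100 0.01%, pH 5.5.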
NS1 function inh – qHTS Assay for Inhibitors of Influenza NS1 Protein Function; 0.4% of 270,000 active; AID 2326, 2010; Potency, µM (doses to about 46.1 µM), without a hit: at the highest dose activity, positive = more growth; S. cerevisiae slowed by influenza A NS1, growth recovery by OD600; note: actives are rising curves; nearly all actives have a fitted effect of over 50% in size
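OD600 was taken as the measure of yeast growth restored by compound in an NS1-expressing S. cerevisiae strain. Cells had been washed out of glucose medium and diluted 1:100 into galactose -URA medium, pH 6.0.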
Lassa entry inh – qHTS for Inhibitors of binding or entry into cells for Lassa Virus | Lassa virus pseudotype entry inhibition, cell reporter; control for the full effect not named in the record | AID 540256, 2011 | 1.2% of 300,000 active | Potency, µM (highest dose often 37.9 µM), inactives show at the top dose activity change, negative = inhibition, usual class: inhibitors; active means well fitted inhibition curve with a large enough effect; inconclusive means small, poorly fitted or top-dose-only effect, or effect the other way; inactive means flat fitted curve, though single readings scatter; tested in HEK293 cells; note: % is set by controls: 0 for no effect and ±100 for the full control effect; nearly all actives have a fitted effect of over 50% in size; luciferase read-out
Cruzain noTriton – qHTS Assay for Promiscuous and Specific Inhibitors of Cruzain (without detergent); Cruzipain (Trypanosoma cruzi), P25779; purified cruzain, Z-FR-AMC fluorescence, no detergent; Potency, µM, for inactives: max response, negative = inhibition, actives largely listed as inhibitors; 2.3% of 200,000 active; active = well fitted curve in the direction sought with a large enough effect; inconclusive = small, poorly fitted or top-dose-only effect, or another doubt; inactive = no such curve, though single readings can be large; an effect the other way counts as inactive or inconclusive;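 note: plate controls were enzyme without inhibitor for no effect and buffer without enzyme for full effect; nearly all actives have a fitted effect of over 40% in size; top concentration of the series not given in the record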
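Purified cruzain at 1.5 nM, pre-incubated 15 min with compound at room temperature in 100 mM sodium acetate pH 5.5, 5 mM DTT, 0.00005% Triton X-100. Reaction started with 2 uM Z-FR-AMC; AMC fluorescence increase over 60 s gives rate.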
StopGo reporter – High Throughput Screening for Foot and Mouth Disease Virus Antivirals. human cells with a luciferase reporter of 2A StopGo recoding; control for the full effect not named in the record. Potency, µM (top dose mostly 57.9 µM), inactives show at the top dose signal change, negative = less light. 1.2% of 410,000 active. AID 1159524, 2015; active = well fitted falling curve with a large enough effect; inconclusive = small, poorly fitted or top-dose-only effect; inactive = no such curve, though single readings can be large or run the other way; tested in HEK293T cells; note: % is set by controls: 0 for no effect and ±100 for the full control effect; nearly all actives have a fitted effect of over 45% in size; luciferase light after 4 h
SARS PLP yeast – qHTS of Yeast-based Assay for SARS-CoV PLP. Potency, µM (highest dose often 32.9 µM), for the others: at the highest dose activity, positive = growth rescue. 0.19% of 330,000 active. AID 485353, 2010. S. cerevisiae expressing SARS-CoV PLpro, growth rescue; control for the full effect not named in the record; note: 0% is about no effect; nearly all actives have a fitted effect of over 55% in size; growth read by luminescence after 48 h
MARV entry inh – qHTS for inhibitors of binding or entry into cells for Marburg Virus | Potency, µM (series often up to 37.8 µM), for inactives: at the highest dose activity change, negative = inhibition, usual class: inhibitors | 1.8% of 300,000 active | AID 540276, 2011 | Marburg virus pseudotyped entry inhibition, cell reporter; control for the full effect not named in the record; about a third of the inactives were read at about 46 µM; active = well fitted inhibition curve with a large enough effect; inconclusive = small, poorly fitted or top-dose-only effect, or effect the other way; inactive = flat fitted curve, though single readings scatter; tested in HEK293 cells; about a fifth of its hits are not listed in these tables; note: % is set by controls: 0 for no effect and ±100 for the full control effect; luciferase read-out
RE007 growth inh – qHTS Assay for Inhibitors of the HIV-1 protein Vpr. S. pombe RE007 Vpr strain, BacTiter-Glo ATP luminescence, 24 h; control for the full effect not named in the record. Potency, µM (highest dose often 92.2 µM), without a hit: at the top dose activity change, negative = less growth. 0.21% of 360,000 active; active = well fitted falling curve with a large enough effect; inconclusive = small, poorly fitted or top-dose-only effect; inactive = no such curve, though single readings can be large or run the other way;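 note: % is set by controls: 0 for no effect and ±100 for the full control effect; nearly all actives have a fitted effect of over 50% in size; the assay follows cell death caused by Vpr and the record does not say whether a fall means rescue or toxicity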
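Fission yeast strain RE007, carrying one chromosomally integrated HIV-1 vpr copy, was seeded at OD 0.01 in PMG+AL medium with 23 nL pinned compound. After 24 h at 30 °C and 99% humidity, viability was read by BacTiter-Glo luminescence.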
An asterisk follows results filed as active; ? = inconclusive; . = not tested or not shown; [ ] = another dose, or the depositor's remark. Unless noted, calls come from the whole dose curve; as a rule, active means well fitted rising curve with a large enough effect; inconclusive means small, poorly fitted or top-dose-only effect; inactive means no such curve, though single readings can be large or run the other way. Potency is the fitted concentration of half-maximal effect.

Under each structure: RE007 growth inh, Cruzain noTriton, NS1 function inh, MARV entry inh, StopGo reporter, Lassa entry inh, SARS PLP yeast, Cruzain inh Det
Cc1ccc(NC(=O)Cn2nnc(C(=O)NCc3ccc(Cl)cc3)c2N)cc1F
  5%, ., 0%, 22%[46.1 µM], -7%, ?, 2%, .
CCSc1nc(N)c2c3c(sc2n1)CN(C)CC3
  ., -20%, 8%, 2%, ., ., 2%, -4.3%
O=C(O)Cn1nc(-c2ccc(Cl)cc2)ccc1=O
  8%, ., 0%, 0%[46.1 µM], -14%, ?, 2%, .
O=S(=O)(c1ccc(Cl)cc1)c1nc(-c2ccccc2F)oc1NCCCN1CCOCC1
  -10%, ., 1%, ?, -10%, -52%, 4%, .
FC(F)(F)c1ccc(C2[C@H]3CN(Cc4cccnc4)[C@H](c4ccccc4)C34CC2(c2cccnc2)C4)cc1 (some centres not stated)
  -11%, 2%, -41%, ., 0%, ., -15%, -3.5%
CCOC(=O)N/N=C(\C)c1ccc(C)o1
  -8%, ., 4%, 13%[46.1 µM], 13%, 14%, 2%, .
O=C(CSCc1cnn(-c2ccccc2)c1-n1cccc1)Nc1ccc(F)cc1F
  ., 23%, ., -7%[46.1 µM], -8%, 16%[46.1 µM], ., -9.8%
CSCC[C@H](NC(=O)N1CCn2c1nc1ccccc12)C(=O)NCc1ccc2c(c1)OCO2
  5%, ., -15%, ., 9%, ., -6%, .
CC(C)Cc1cc(C(=O)O)c2ccccc2n1
  -8%, ., ., -28%, 11%, 13%, ., .
Cc1c(N(C)C(=O)COc2ccc3ccccc3c2)c(=O)n(-c2ccccc2)n1C
  -3%, ., 9%, 6%[46.1 µM], 22%, -3%, -3%, .
CCOc1ccc(NC(=O)c2oc3ccccc3c2NC(=O)C(C)(C)C)cc1
  ., 7%, ., ?, -4%, -22%[46.1 µM], ., -10%
CCCn1c(SCC(=O)N2c3ccccc3CC2C)n[nH]c1=O (configuration not stated)
  -2%, ., ., -13%, -2%, ?, -3%, .
Cc1ccccc1OCCNC(=S)Nc1ccccc1
  -17%, -11%, -5%, ?, 29%, ?, 6%, -12%
O=C(Nc1ccc2c(c1)OCO2)C1CCCN1C(=O)Nc1cccc(F)c1 (configuration not stated)
  -21%, -5%, -1%, 19%, 3%, 7%, 8%, 4.1%
CCCSC1=NN2CCCC(=O)N=C2S1
  0%, ., ., 2%[46.1 µM], 56%[activator], ?, 0%, .
COCCCNC(=O)c1ccc2nc3ccccc3c(=O)n2c1
  11%, -2%, -6%, -28%, 21%, -25%, -5%, -7.7%
CC(=O)Oc1cccc(C(=O)Nc2ccccc2NC(=O)c2cccc(OC(C)=O)c2)c1
  -9%, ., 3%, 1%, -28%, ., -3%, .
COc1ccc(C2C(C#N)=C(N)Oc3n[nH]c(C)c32)cc1Cn1cc([N+](=O)[O-])cn1 (configuration not stated)
  10%, -15%, 15%, 11%[46.1 µM], ?, -21%, -9%, -5.8%
O=S(=O)(CCc1ccncc1)Cc1ccc2c3c(cccc13)CC2
  1%, ., 7%, ., -12%, ., -2%, .
C=CCOc1ccc(/C(CC)=N/O)cc1OC
  7%, 10%, -45%, 4%, 11%, -1%, -6%, 5.4%

Next part; it opens with the 5 that closed the last part.
Under each structure: RE007 growth inh, Cruzain noTriton, NS1 function inh, MARV entry inh, StopGo reporter, Lassa entry inh, SARS PLP yeast, Cruzain inh Det
COCCCNC(=O)c1ccc2nc3ccccc3c(=O)n2c1
  11%, -2%, -6%, -28%, 21%, -25%, -5%, -7.7%
CC(=O)Oc1cccc(C(=O)Nc2ccccc2NC(=O)c2cccc(OC(C)=O)c2)c1
  -9%, ., 3%, 1%, -28%, ., -3%, .
COc1ccc(C2C(C#N)=C(N)Oc3n[nH]c(C)c32)cc1Cn1cc([N+](=O)[O-])cn1 (configuration not stated)
  10%, -15%, 15%, 11%[46.1 µM], ?, -21%, -9%, -5.8%
O=S(=O)(CCc1ccncc1)Cc1ccc2c3c(cccc13)CC2
  1%, ., 7%, ., -12%, ., -2%, .
C=CCOc1ccc(/C(CC)=N/O)cc1OC
  7%, 10%, -45%, 4%, 11%, -1%, -6%, 5.4%
COCC(=O)NNC(=O)Cc1ccc(Cl)cc1
  -1%, ., 2%, ., 6%, ., 0%, .
COc1cc(OC)c(NC(=O)c2cn(C)c(=O)c3cc(OC)c(OC)cc23)cc1Cl
  ., 7%, ., 0%[46.1 µM], 6%, 1%[46.1 µM], ., 0.5%
Cc1nn(-c2ccc(N3CCOCC3)nn2)c(C)c1CCC(=O)Nc1ccc(F)cc1
  1%, ., 2%, ., 17%, ., 0%, .
O=C(CS(=O)(=O)Cc1ccccc1)NCc1ccc2c(c1)OCO2
  7%, -5%, 1%, 3%, 12%, 8%, 1%, 4.5%
Cc1ccc(C2(c3noc(CN(C)CC4CCCCO4)n3)CCCC2)cc1 (configuration not stated)
  -1%, ., -7%, ., -24%, ., -1%, .
O=C(Nc1ccccc1)O/N=C/c1ccc(F)cc1
  -28%, ., -45%, ., 36%[activator], ., -9%, .
O=C(O)c1ccccc1C(=O)N1CCN(c2cccc(Cl)c2)CC1
  -1%, -20%, -6%, -1%, 4%, 15%, 13%, -3.7%
COc1ccc(-c2ccc(-c3noc(C4CCCCC4)n3)c(OC)n2)cc1
  -2%, -11%, ?, 3%, -3%, -5%, -5%, -10%
O=S(=O)(Nc1ccc(-c2csc(-c3ccccc3)n2)cc1)c1ccccc1
  0%, ?, 7%, ?, 19%, 3%, -69%, -7.2%
Cc1ccc(N(CC(=O)N/N=C/c2ccco2)S(=O)(=O)c2ccccc2)cc1
  6%, 5%, 11µM*, -2%, 15%, 17%, 1%, -6.9%
CN1C(=O)N(c2ccc(Cl)cc2)C(C)(O)CC1(C)C (configuration not stated)
  -7%, ., 0%, ?, 0%, -28%[46.1 µM], 0%, .
Cc1[nH]n(-c2ccccc2)c(=O)c1/C=N/NC(=O)c1ccccc1F
  -1%, ., -2%, ., 43%[activator], ., -2%, .
CN(C)/C(Cn1cncn1)=C1/N=C(c2c(F)cccc2F)OC1=O
  -1%, ., 2%, ., 12%, ., -2%, .
CCC(C)Nc1nc(N)c([N+](=O)[O-])c(NC2CCCCC2)n1 (configuration not stated)
  -5%, ., 10%, -17%[46.1 µM], -26%, 6%[46.1 µM], 0%, .
C=CCn1c(=O)c2c(nc3n2CC(C)CN3c2cccc(OC)c2)n(C)c1=O (configuration not stated)
  12%, -1%, 5%, ., -17%, ., 1%, 0.5%
Cc1ccc(S(=O)(=O)N2CCSC2C(=O)O)cc1 (configuration not stated)
  3%, 16%, 1%, 3%, 1%, 2%, -2%, -0.5%
Cc1ccc(C(=O)Nc2ccc(Cl)cc2C)c(Cl)c1
  9%, ., ., -27%[46.1 µM], 19%, -22%, 0%, .
Cc1oc(-c2ccc(Cl)cc2)nc1CN1CCC(C(=O)NCc2cccs2)CC1
  -13%, 6%, -3%, ?, -25%, ?, 12%, -2.1%
Nc1nnc(SCC(=O)Nc2ccc3nc(SCC(=O)Nc4ccccc4)sc3c2)s1
  ., ?, 17%, -30%, 20µM*, -1%, 1%, 2.1%
C/C(=N\NC(=O)C1(C)CC1(Br)Br)c1cccc(NC(=O)C2CCC2)c1 (configuration not stated)
  3%, 5%, 9%, 18%, ?, 1%, 15%, -1.3%
COc1ccc(-n2nnnc2SCC(=O)N2CCCC2)cc1OC
  4%, -11%, -5%, 13%, 24%, ?, -7%, 2.9%
COc1ccc(-c2nc3ccccc3o2)cc1NC(=O)c1cccnc1
  ., ?, ., -29%[46.1 µM], 3%, 15%[46.1 µM], ., -2.8%
COc1ccc(C)cc1NC(=O)CN(c1ccc(F)cc1)S(C)(=O)=O
  22%, 7%, -2%, -15%, -12%, 3%, 5%, 1.6%
COc1ccc(CN2CCNC(=O)C2CC(=O)NC2CCOCC2)c(F)c1 (configuration not stated)
  -17%, ., 0%, 14%, -20%, -1%, -3%, .
COc1cccc(OC)c1C(=O)Nc1c(C(=O)N2CCN(C)CC2)oc2ccccc12
  4%, ., -4%, ., -1%, ., -3%, .
CCCCCCCCSc1nnc(-c2ccc(OC)cc2)o1
  -2%, 1%, 11%, ?, -22%, 11%, 0%, -1.4%
Cc1ccc(NS(=O)(=O)c2ccc(C(=O)NCCCN3CCCC3=O)cc2)cc1C
  8%, ., ., ?, -12%, ?, 5%, .
O=C(NCCN1CCOCC1)c1cc(S(=O)(=O)Nc2ccccc2F)c(Cl)cc1Cl
  -1%, ., 5%, ., 5%, ., 0%, .
O=C(CN(c1ccc(F)cc1)S(=O)(=O)c1ccccc1)N1CCOCC1
  -12%, ., ., 4%, -15%, 8%, ., .
COc1ccc(C2(Nc3cccc(C(=O)O)c3C)C(=O)c3ccccc3C2=O)cc1
  ., -9%, ., ., -7%, ?, ., -3.1%
CCOC(=O)c1c(C)n(-c2ccccc2)c2ccc(OC(=O)c3ccccc3)cc12
  ., ?, ., ., -18%, -9%[46.1 µM], ., -1.5%

Compounds were not picked by outcome; any-hit rate near 4.7%.
